From PubChem
AID923 = qHTS Assay for Allosteric/Competitive Inhibitors of Caspase-1: Spectroscopic Profiling in AFC Spectral Region; compound fluorescence, AFC spectral region (405/520 nm); almost no hit is shown here; Potency, µM (doses to about 57.5 µM), for the others: top-dose fluorescence increase, hits mostly activators; 1.1% of 75,000 active; active means well fitted activation curve with a large enough effect; inconclusive means small, poorly fitted or top-dose-only effect;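 further: potency means the concentration at half of the fitted maximal effect; 0% is about no effect; scaled to a free AFC standard on each plate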
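Titrations up to 57 uM read every 20 sec for 3 min (405/520 nm) with 50 nM caspase 1 and 5 uM Ac-WEHD-AFC, pH 7.5 HEPES buffer. Fluorescence-vs-time intercept gave baseline, scaled against on-plate AFC standard.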
A647 autofl = qHTS Assay for Spectroscopic Profiling in A647 Spectral Region | Compound fluorescence, A647 channel (570/671 nm), Tris buffer | AID 592, 2007 | max dye-equivalent concentration, M | 59,000 tested, under 10 active; active means above 1 µM dye equivalent; inconclusive means 0.1 to 1 µM; inactive means 0.1 µM or less;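 further: values scaled relative to a standard on each plate; highest value over a series up to 38 µM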
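Compound fluorescence was measured in 100 mM Tris buffer, pH 8.0, after 15 min at room temperature, using 570 nm excitation and 671 nm emission filters. Signal was normalized to a per-plate Alexa 647 standard curve and expressed as dye-equivalent concentration at each compound concentration.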
TSHR ag = qHTS Assay for Agonists of the Thyroid Stimulating Hormone Receptor. Potency, µM (highest dose often 57.1 µM), without a hit: top-dose activation, hits mostly activators. HEK293-CNG-TSHR cells (CNG channel as cAMP sensor), membrane potential dye, cAMP. AID 926, 2007. Thyrotropin receptor (Homo sapiens), P16473. 0.48% of 73,000 active; active = well fitted activation curve of enough size with the parental cells flat; inconclusive = any curve in the parental cells; inactive = parental cells flat and receptor cells flat or falling; further: potency means the concentration at half of the fitted maximal effect; % of control where 0% means no effect; weak receptor curves with flat parental cells got no call and are not listed
Target sequence (P16473 whole entry, looked up): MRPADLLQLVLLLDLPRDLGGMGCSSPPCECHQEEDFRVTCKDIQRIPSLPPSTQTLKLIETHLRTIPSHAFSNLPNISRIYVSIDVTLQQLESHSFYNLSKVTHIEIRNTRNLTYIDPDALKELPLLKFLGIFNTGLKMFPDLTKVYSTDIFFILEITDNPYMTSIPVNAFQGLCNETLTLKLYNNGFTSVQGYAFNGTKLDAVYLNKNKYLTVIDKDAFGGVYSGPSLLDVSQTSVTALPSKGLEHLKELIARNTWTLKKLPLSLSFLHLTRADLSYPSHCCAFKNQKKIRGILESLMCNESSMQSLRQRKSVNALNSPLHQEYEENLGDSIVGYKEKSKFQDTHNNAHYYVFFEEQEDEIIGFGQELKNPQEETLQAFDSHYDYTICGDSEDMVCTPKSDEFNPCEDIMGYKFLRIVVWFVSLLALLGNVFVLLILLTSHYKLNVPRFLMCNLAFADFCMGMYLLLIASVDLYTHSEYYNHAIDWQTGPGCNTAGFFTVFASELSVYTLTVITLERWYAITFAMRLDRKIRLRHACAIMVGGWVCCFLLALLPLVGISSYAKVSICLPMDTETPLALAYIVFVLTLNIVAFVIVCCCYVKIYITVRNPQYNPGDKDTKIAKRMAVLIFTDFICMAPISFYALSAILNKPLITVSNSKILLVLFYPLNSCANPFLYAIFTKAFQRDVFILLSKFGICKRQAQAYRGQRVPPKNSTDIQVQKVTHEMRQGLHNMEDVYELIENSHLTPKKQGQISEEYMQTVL
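cAMP rise detected as CNG-channel membrane depolarization by fluorescent dye (emission 590 nm), 30 min after compound, following 60 min dye loading containing 100 uM RO 20-1724 at room temperature. Cells: TSHR/CNG HEK 293, with parental CNG HEK 293 as control.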
Resorufin fluor = qHTS Assay for Spectroscopic Profiling in Resorufin Spectral Region; Compound fluorescence, resorufin region 547/598 nm, buffer; hits give high values; 0.04% of 59,000 active; max dye-equivalent concentration, M; active = above 10 nM dye equivalent; inconclusive = 1 to 10 nM; inactive = 1 nM or less; a few of its hits are not listed in these tables; further: highest value over a series up to 38 µM
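Dye-equivalent concentration values derive from comparing each well's 547/598 nm fluorescence against resorufin standards included on every plate. Incubation was 15 min at room temperature in 100 mM Tris, pH 8.0.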
A488 fluor = qHTS Assay for Spectroscopic Profiling in A488 Spectral Region; compound autofluorescence, A488 spectral region, dye equivalency; hits give high values; max dye equivalency, M; 0.1% of 59,000 active; active = above 10 nM dye equivalent; inconclusive = 1 to 10 nM; inactive = 1 nM or less; about half of its hits are not listed in these tables;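 further: highest value over a series up to 38 µM; compound alone in buffer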
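Autofluorescence read at ex 480/em 540 nm after 15 min RT in 100 mM Tris pH 8.0; compound signal normalized to A488 standard series on each plate, reported as dye-equivalent concentration at each test concentration.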
Active calls of the source: *; i = inactive; ? = inconclusive; . = not tested or not shown; & = joins results of further samples; [ ] = remark or other dose. A portion of the library. The share of hits here may be higher or lower than overall.

SMILES	AID923	A647 autofl	TSHR ag	Resorufin fluor	A488 fluor
COc1cccc(C(c2sc3nc(C)nn3c2O)N2CCN(c3ccccc3F)CC2)c1 (stereo not given)	-2.5%	.	-2%	.	.
COc1cc2c(cc1OC)[C@@H]1C(=O)c3ccc4c(c3O[C@@H]1CO2)C=CC(C)(C)O4	1.1%	.	?	.	.
N#Cc1c(NC(=O)CCC(=O)O)ccc2ccccc12	3.0%[11.5 µM]	9.8e-09	4%[11.4 µM]	i	i
O=C(CCSc1ccccc1)Nc1ncccn1	0.0%	5.6e-08	11%	i	i
COC(=O)c1ccccc1NC(=O)C1CC(c2ccccc2O)=NO1 (stereo not given)	0.1%	4.3e-08	?	i	i
Cc1cc(C)cc(NC(=O)C2CCN(c3nc(C)cc(C)n3)CC2)c1	2.6%	1e-09	2%	i	i
Cc1ccc(C2NC(=O)NC(O)(C(F)(F)F)C2C(=O)c2ccccc2)o1 (stereo not given)	0.5%	1.2e-09	2%	i	i
O=C(O)CC1C(=O)NCCN1C/C=C/c1ccccc1 (stereo not given)	1.2%	.	-2%	.	.
COC(=O)c1c(NC(=O)CCCC(=O)O)sc(C)c1C	1.0%	.	8%	.	.
CC(C)(C)c1ccc(S(=O)(=O)n2c(CN3CCOCC3)nc3ccccc32)cc1	1.2%	2e-08	21%	i	i
CC(=O)c1ccc(N2C(=O)C3C(C2=O)C(C(=O)c2ccc(Cl)cc2)N2CCCC32)cc1 (stereo not given)	6.8%	1e-09	10%	i	?
CCCCN1CC(O)=C(c2nc3ccccc3s2)C1=N	1.3%	1e-09	2%	i	i
Cc1ccc2nc(-c3cccc(NC(=O)c4ccc5c(c4)OCCO5)c3)oc2c1	-2.3%	3.1e-09	7%	i	i
Cc1cccc(-c2ccc(C=Nc3c(C)n(C)n(-c4ccccc4)c3=O)o2)c1	3.1%	1e-09	3%	i	i
Cc1ccc(N2CN=c3s/c(=C\c4ccccn4)c(=O)n3C2)cc1	0.0%	.	4%[11.4 µM]	.	.
CC(=O)Nc1ccc2nc(SCC(=O)O)sc2c1	1.9%	1e-09	-3%	i	i
O=C(c1cccnc1)N1CCc2ccccc21	2.5%	.	-4%	.	.
Oc1ccc(N2CCN(C(c3cccs3)c3nnnn3CCc3ccccc3)CC2)cc1 (stereo not given)	0.2%	2.5e-08	?	i	i
Cc1ccc(O)c(N)c1	0.3%	.	-4%	.	.
C=CCn1c(SCC(=O)NC2CCCCC2)nnc1C(C)NC(=O)c1cccs1 (stereo not given)	-0.6%	1e-09	?	i	i
CCOC(=O)CSc1nc(N(C)C)nc(N(C)C#N)n1	.	9e-08	.	i	i
O=C(CSc1nccc(=O)[nH]1)N1c2ccccc2CCc2ccccc21	1.3%	1.9e-09	?	i	i
Cc1ccc(CNC(=O)c2cn(C3CCCCC3)c(=O)c3c2c2ccccc2n3C)o1	1.9%	1e-09	?	i	i
O=C1CCCCCC1C1(O)C(=O)Nc2ccc(Br)cc21 (stereo not given)	0.3%	2e-09	-2%	i	i
CCSc1nnc(N(CCC#N)CCC#N)s1	.	1.1e-08	.	i	i

Next section (2 carried over from the part before).
SMILES	AID923	A647 autofl	TSHR ag	Resorufin fluor	A488 fluor
O=C1CCCCCC1C1(O)C(=O)Nc2ccc(Br)cc21 (stereo not given)	0.3%	2e-09	-2%	i	i
CCSc1nnc(N(CCC#N)CCC#N)s1	.	1.1e-08	.	i	i
O=C1C(Cl)=C(NCC2CCCO2)C(=O)N1c1ccccc1 (stereo not given)	2.1%	1.5e-08	2%	i	i
COc1ccc(C2C(C(C)=O)=C(O)C(=O)N2CCN(C)C)cc1OC (stereo not given)	-0.9%	.	-1%	.	.
CCn1c(=O)cc(OCC(=O)NCCCN2CC(C)CC(C)C2)c2ccccc21 (stereo not given)	-0.3%	2.1e-09	12%[11.4 µM]	i	i
Cc1onc(-c2ccccc2)c1C(=O)Nc1ccc2c(c1)OCO2	0.5%	.	10%	.	.
COc1ccc(C(c2nnnn2CC2CCCO2)N2CCN(c3cccc(C)c3C)CC2)cc1 (stereo not given)	1.3%	3.7e-08	?	i	i
CCOc1ccc(NC(=O)N(C2CCCCC2)C2CCN(C(C)=O)CC2)cc1	-1.8%	.	-5%	.	.
Cc1cc(C)nc(SCc2ccc(C(=O)O)o2)n1	-0.2%	5.2e-09	-1%	i	i
C/C(Cl)=C/CN1C(=O)C2C3C=CC(C3)C2C1=O (stereo not given)	-0.1%	7.2e-09	3%	i	i
COCCCNC(=O)c1cccc(C(=O)NCCCOC)c1	1.9%	.	4%[11.4 µM]	.	.
CCCn1c(=O)c2[nH]c(C3CCCC3)nc2n(CCC)c1=O	-2.1%&3.3%	3e-09&3.9e-09	?	i	i
Cc1nn(-c2ccccn2)c2c1C(c1ccsc1)C1=C(CCCC1=O)N2 (stereo not given)	1.8%	1e-09	.	i	i
COCCNc1cc(-c2ccccc2C(F)(F)F)ncn1	-0.5%	1e-09	?	i	i
CC(=O)C1=C(O)C(=O)N(Cc2ccco2)C1c1ccccc1 (stereo not given)	-0.4%	1e-09	?	i	i
N#Cc1ccc(-c2nnnn2-c2ccc3c(c2)OCO3)cc1	0.9%	1e-09	3%	i	i
CCOC(=O)c1[nH]c(C)c(C(=O)OCCN2C(=O)c3ccccc3C2=O)c1C	-0.5%	1.2e-08	9%	i	i
CC(=O)OC[C@@H]1O[C@H](C/C=N\O[C@@H](C)CN2CCCc3nc(C)c(C)cc32)C=C[C@@H]1OC(C)=O	8.0%[11.5 µM]	.	1%[11.4 µM]	.	.
COCC(=O)N1CCC2(CC1)CN(c1ccncc1)C2	1.7%	3e-08	6%	i	i
CN/C=C1\C(=O)C(C)(C)Oc2ccc3ccc(=O)oc3c21	0.7%	1.6e-09	-1%	i	i
COC(=O)C1CCCN1S(=O)(=O)c1ccc2ccccc2c1 (stereo not given)	-1.1%	1e-09	12%	i	i
Cc1ccc2c(C)nc(NC3=NCN(CCc4ccccc4)CN3)nc2c1	-0.7%	2.3e-08	.	i	i
COC(=O)COc1ccc(S(=O)(=O)NCc2ccco2)cc1Cl	-2.0%	2.5e-08	5%	i	i
CN(C)CCCN1c2ccccc2CCc2ccc(Cl)cc21	10%	1.1e-08&3.4e-08&4.2e-08	?	i	i
CCOc1cc(-c2nc(-c3ccccc3OC)no2)cc(OCC)c1OCC	-1.3%	1e-09	9%	i	i
O=C(O)c1ccc(NS(=O)(=O)c2ccc(Cl)c(Cl)c2)cc1O	-1.6%	3.7e-09	5%	i	i
CCOC(=O)c1sc(NC(=O)CSc2nncs2)c(C(=O)OCC)c1C	1.2%	2.8e-08	?	i	i
Later entries.
SMILES	AID923	A647 autofl	TSHR ag	Resorufin fluor	A488 fluor
COC(=O)CSc1cc(C(=O)c2nccn2C)c2ccccc2n1	-1.2%	3.1e-08	6%	i	i
COCCn1c(SCC#N)nnc1-c1ccccc1	0.9%	1.3e-09	?	i	i
CC1=CC(C)(C)N2C(=O)C3(C(C#N)=C(N)Oc4cc(O)ccc43)c3cccc1c32 (stereo not given)	0.9%	1e-09	12%	i	i
NC(=O)N[C@H]1NC(=O)NC1=O	0.6%[25.7 µM]	3.6e-09	?	i	i
O=C(Nc1cccc(C(=O)N2CCCC2)c1)c1ccccc1	-0.7%	1e-09	?	i	i
Cc1ccc2cc(CN(Cc3ccc4c(c3)OCO4)Cc3nnnn3Cc3ccco3)c(=O)[nH]c2c1C	12%	2.8e-08	?	i	i
O=C(NCC(=O)N(Cc1ccc(F)cc1)C(C(=O)NC1CCCC1)c1ccco1)c1ccco1 (stereo not given)	-1.3%	5.4e-09	?	i	i
COc1ccc(O[C@H]2C=C[C@@H](c3ccccc3)O[C@H]2COC(=O)CC/C(C)=N/O[C@@H]2O[C@H](COC(C)=O)[C@H](OC(C)=O)[C@H](OC(C)=O)[C@H]2OC(C)=O)cc1	0.6%[11.5 µM]	.	-7%[11.4 µM]	.	.
CCOC(=O)C1=C(C)NC2=C(C(=O)c3ccccc32)C1c1cccnc1 (stereo not given)	-0.5%	5.1e-09	-8%	i	i
COc1ccc(-c2cn3cccnc3n2)cc1NC(=O)C1CCCC1	0.2%	3e-08	-3%	i	i
COc1ccccc1OCC(=O)Nc1oc(-c2ccccc2)c(-c2ccccc2)c1C#N	-2.7%	1.3e-08	?	i	i
Cc1cccc(C)c1NC(=O)CSc1nnc(-c2ccoc2C)n1CCc1ccccc1	0.9%	4e-08	?	i	i
Cc1ccn(CCSCC(=O)O)n1	1.5%	1e-09	-2%	i	i
Cc1cc(N2CCCN(C)CC2)nc2cc(Cl)ccc12	0.1%	.	14%	.	.
CCOC(=O)C1CCN(C(=O)COc2cc(C)c(Br)c(C)c2)CC1	-0.9%	.	?	.	.
CCOCCCn1c(=S)[nH]c2cc(C(=O)NCCN(CC)CC)ccc2c1=O	0.0%	1.9e-08	1%	i	i
COc1cc(C)c(Cl)cc1S(=O)(=O)NCc1ccncc1	0.6%	2.3e-08	20%	i	i
CSc1nc(C)c(Oc2ccccc2)c(=O)n1C	1.2%	1e-09	11%	i	i
O=c1c2cc(Cl)ccc2oc2nc3n(c(=O)c12)CCCS3	-2.1%	5.3e-09	-2%	i	i
CCCc1nc(N2CCOCC2)c(C#N)c2c1CCCC2	.	5.9e-08	.	i	i
CC(C)Cc1cc(C(=O)Nc2cc(Cl)ccc2Cl)no1	0.0%	.	3%	.	.
Fc1ccc(CNc2ccc(CNc3ncn[nH]3)cc2)cc1	0.7%	1e-09	9%	i	i
N#C/C(C(=O)NCc1ccco1)=C1/SC(Cc2ccc(Cl)cc2)C(=O)N1c1ccccc1 (stereo not given)	.	1e-09	.	i	i
Cc1cc(C)n2nc(NCc3cccc(Br)c3)nc2n1	1.8%	7e-09	1µM*	i	i
COc1ccc(OC)c(NC(=O)C2CCCN(S(=O)(=O)c3cccc4cccnc34)C2)c1 (stereo not given)	-0.8%	.	-1%	.	.

Full records, looked up by structure.
Record of `CCOC(=O)C1=C(C)NC2=C(C(=O)c3ccccc32)C1c1cccnc1` (stereo not given) : AID923 = -0.5%; A647 autofl = 5.1e-09; TSHR ag = -8%; Resorufin fluor = i; A488 fluor = i
Record of `COCCn1c(SCC#N)nnc1-c1ccccc1` : AID923 = 0.9%; A647 autofl = 1.3e-09; TSHR ag = ?; Resorufin fluor = i; A488 fluor = i

Other entries.
SMILES	AID923	A647 autofl	TSHR ag	Resorufin fluor	A488 fluor
COC(=O)c1cn(NC(=O)CC2CCCCC2)c(=O)c2ccccc12	-0.7%	1.6e-08	-5%	i	i
Cc1nc2ccc(S(=O)(=O)NC(C(=O)N3CCCCCC3)C(C)C)cc2s1 (stereo not given)	-1.4%	.	12%	.	.
CC1(C)CN(O)CCN1O	.	2.5e-08	.	i	i
C=C(C)CSc1nncn1/N=C/c1ccc(OC)cc1	1.0%	3.9e-08	18%	i	i
CCCC(=O)NCCc1nc2ccccc2n1C	-0.6%	1e-09	.	i	i
Cc1cc(C)nc(SCC(=O)Nc2ccc(N3CCOCC3)cc2)n1	1.5%	2.6e-08	3%	i	i
CCOC(=O)c1ccc(NC(=O)CC2C(=O)N(c3cccc(OC)c3)C(=O)N2CCOC)cc1 (stereo not given)	0.3%	1e-09	.	i	i

Rewritten with each value named: part of the list above.
> Cc1ccc2cc(CN(Cc3ccc4c(c3)OCO4)Cc3nnnn3Cc3ccco3)c(=O)[nH]c2c1C
  AID923: 12%
  A647 autofl: 2.8e-08
  TSHR ag: ?
  Resorufin fluor: i
  A488 fluor: i

> O=C(NCC(=O)N(Cc1ccc(F)cc1)C(C(=O)NC1CCCC1)c1ccco1)c1ccco1 (stereo not given)
  AID923: -1.3%
  A647 autofl: 5.4e-09
  TSHR ag: ?
  Resorufin fluor: i
  A488 fluor: i
